UUG fidelity: modulators of yeast start codon fidelity, primary screen, whole organism, S. cerevisiae, single point, plate reader | S. cerevisiae UUG-firefly luciferase reporter, luminescence/redox ratio | activity score, % at 18.7 µM | hit rate 0.13% among 350,000;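 active = replicate mean at a twofold rise or more, about +100% in these data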;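 also: firefly luciferase made from a UUG start codon reports start codon fidelity; reporter light over untreated wells divided by growth signal over untreated wells; some hits fall short of that in this replicate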
HIV Env fusion: inhibitors of HIV-1 Env-driven cell-cell fusion, primary screen, HeLa-JRFL effector, CEM21 target cells, luciferase; inhibition, % at 12.3 µM; hit rate 1.1% among 360,000; AID 651610, 2012;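 active = mean replicate inhibition score of at least 50 and every replicate individually at or above 50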;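 also: 0% = plate neutral controls and 100% = maraviroc near 300 nM; one replicate is shown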
MT1-MMP act inh: blockers of MT1-MMP proenzyme processing, primary screen, HT1080 RFP-PRO-GFP cells, GFP/RFP fluorescence | Matrix metalloproteinase-14 (Homo sapiens), P50281 | GFP/RFP ratio fluorescence, overnight; percent of plate control window, DMSO zero | GFP/RFP ratio change, % at 20 µM | hit rate 0.061% among 360,000;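 active = GFP/RFP ratio change of at least 30% with cell ATP level not reduced by more than half and red fluorescence within 50% of control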; also: strong numbers were not always called active
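Assay system: HT1080 RFP-PRO-GFP cells. Benchmarks: DMSO vehicle wells and RFP-L50D-GFP reporter cell wells. Times: overnight cell settling, then overnight compound exposure, 37 °C, 5% CO2. Compound: 20 µM single dose, 1% DMSO. Read-out basis: GFP/RFP fluorescence ratio.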
Rce1 inh: yeast Rce1p protease inhibitors, primary screen, biochemical, fluorescence, cell-free homogeneous; CAAX prenyl protease 2 (Saccharomyces cerevisiae (strain ATCC 204508 / S288c)), Q03530; yeast membranes, quenched prenylated peptide cleavage fluorescence; calls only; hit rate 0.27% among 290,000;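 active = fall in fluorescence gain of 50% or more versus controls, with final raw signal at or below 3038400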;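 also: plate controls were neutral control wells for no effect and wells lacking membranes for full effect; tested at 10 µM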
Target sequence (Q03530 whole entry, looked up): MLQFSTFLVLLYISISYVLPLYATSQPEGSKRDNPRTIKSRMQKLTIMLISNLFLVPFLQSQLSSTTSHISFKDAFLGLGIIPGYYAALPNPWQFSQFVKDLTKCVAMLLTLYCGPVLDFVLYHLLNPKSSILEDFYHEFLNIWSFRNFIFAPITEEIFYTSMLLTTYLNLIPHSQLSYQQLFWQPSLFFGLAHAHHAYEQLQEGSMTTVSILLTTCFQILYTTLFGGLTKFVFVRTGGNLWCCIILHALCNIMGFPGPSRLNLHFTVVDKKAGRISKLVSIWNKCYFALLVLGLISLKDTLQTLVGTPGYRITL
CSC inhib: cancer stem cell viability inhibitors, primary screen, luminescence; cancer stem cell-like cells viability; inhibition, % at 7.5 µM; hit rate 1.1% among 300,000; AID 2717, 2010;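 active = mean at 75% or more and at least half the replicates too; tested in HMLE shEcad cells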;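 also: 0% = median of negative and 100% = median of positive control wells; the first replicate is given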
eIF4H FP inh: human eIF4H binding inhibitors, primary screen, translation initiation inhibitor project, biochemical, uHTS, fluorescence polarization; eIF4H fluorescence polarization binding assay; AID 2012, 2009; inhibition, % at 35 µM; hit rate 0.94% among 290,000;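 active = 50% or more with normal probe brightness, or confirmed in later tests; about a fifth of its hits are not listed in these tables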;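 also: calls also rest on retests at 20 µM and on dose response follow-up; 0% = protein and probe with vehicle and 100% = probe without protein; strong numbers were not always called active; many hits fall short of the cut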
PABP polyA inh: PABP poly(A) RNA binding inhibitors, primary screen, biochemical, fluorescence polarization, uHTS. inhibition, % at 35 µM. AID 2014, 2009. Polyadenylate-binding protein 1 (Homo sapiens), P11940. hit rate 1% among 290,000;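 active = 50% or more with normal probe brightness, or confirmed in later tests; about a fifth of its hits are not listed in these tables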;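 also: calls also rest on retests at 20 µM and on dose response follow-up; controls were probe without protein and protein plus probe with vehicle; some compounds called inactive have numbers as strong as hits; many hits fall short of the cut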
Target sequence (P11940 whole entry, looked up): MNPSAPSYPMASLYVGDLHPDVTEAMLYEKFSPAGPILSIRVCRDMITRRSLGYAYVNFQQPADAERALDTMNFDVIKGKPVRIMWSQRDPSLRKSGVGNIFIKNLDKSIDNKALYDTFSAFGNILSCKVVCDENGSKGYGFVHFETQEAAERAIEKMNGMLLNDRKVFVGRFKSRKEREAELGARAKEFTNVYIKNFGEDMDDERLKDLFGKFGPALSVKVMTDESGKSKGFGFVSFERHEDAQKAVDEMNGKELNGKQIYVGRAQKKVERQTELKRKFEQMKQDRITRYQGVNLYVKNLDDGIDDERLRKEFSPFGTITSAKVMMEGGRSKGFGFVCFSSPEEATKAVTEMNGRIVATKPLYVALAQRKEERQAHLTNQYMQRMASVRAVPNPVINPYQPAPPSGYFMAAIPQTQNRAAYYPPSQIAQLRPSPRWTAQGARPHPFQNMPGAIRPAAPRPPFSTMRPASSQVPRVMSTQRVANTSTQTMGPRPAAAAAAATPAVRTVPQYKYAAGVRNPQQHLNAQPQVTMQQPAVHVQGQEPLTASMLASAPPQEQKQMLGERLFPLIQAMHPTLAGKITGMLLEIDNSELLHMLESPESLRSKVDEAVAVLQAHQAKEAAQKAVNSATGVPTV
MT1-MMP act inh RFP: also measured in MT1-MMP act inh; calls as there; RFP signal change, %; measured here: RFP expression control read;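 0 = vehicle wells; hits needed this value within 50% of zero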
Starred values were filed as active, the others as inactive; i = inactive; . = no result given; & = joins results of further samples. Some of the compounds tested (hit frequency here may not be typical).

SMILES	UUG fidelity	HIV Env fusion	MT1-MMP act inh	MT1-MMP act inh RFP	Rce1 inh	CSC inhib	eIF4H FP inh	PABP polyA inh
O=C(NCC(=O)N(CC1CCCO1)C(C(=O)NC1CCCC1)c1ccc(F)cc1)c1ccco1 (stereo unspecified)	-13	2	1	7	i	-4	-5	-6
O=C(NCc1ccc2c(c1)OCO2)C1CCN(c2ncccn2)CC1	-16	15	9	2	i	1	-9	0
CN1CCN(CP(=O)(N2CCOCC2)N2CCOCC2)CC1	-10	-66	2	5	.	-8	-3	-1
CN(C)c1ccc(CNc2ccc3c(c2)ncn3C(C)(C)C)cc1	-6	15	-1	-1	i	-1	-5	2
Cc1ccccc1NC(=O)COC(=O)c1c[nH]c(=O)[nH]c1=O	.	-11	0	6	i	-15	0	-2
CCCCCSc1nc2c(c(=O)[nH]c(=O)n2C)n1CC	-14	-27	0	2	i	-28	.	.
COCCCNC(=O)Cn1cnc2sc(C)c(S(=O)(=O)N3CCN(c4ncccn4)CC3)c2c1=O	.	8	-4	0	i	18	1	-10
Cc1ccccc1NC(=S)N(Cc1cccs1)C1CCCCC1	-28	17	0	4	i	8	-10	-5
COc1cc(OC)cc(-c2nnc(SCc3cccc(C(=O)O)c3)o2)c1	.	1	-2	4	.	-10	-8	14
CCN(c1cccc(C)c1)S(=O)(=O)c1ccc2c(c1)oc(=O)n2C	-17	13	-1	-3	i	9	0	-3
O=c1c(C(c2ccc(Cl)cc2)c2c(O)nc3n(c2=O)CCS3)c(O)nc2n1CCS2	.	3	0	7	i	-1	6	37
CCn1cc(C(=O)N2CCN(c3ccc([N+](=O)[O-])cc3)CC2)c(=O)c2ccc(C)nc21	-19	-1	6	-2	i	10	3	2
CCS(=O)(=O)Nc1cccc(C(=O)CC2(O)C(=O)Nc3ccccc32)c1 (stereo unspecified)	-6	-31	1	14	i	-5	2	-8
CC(C)Oc1ccc(C(CC(=O)O)NC(=O)c2cccs2)cc1 (stereo unspecified)	-2	-30	5	6	i	-11	-5	9
CCOc1ccc2nc(N3CCCC(C(=O)N4CCN(CC)CC4)C3)sc2c1 (stereo unspecified)	-8	-38	0	6	i	3	12	-2
COc1cc(-c2cc(NC=O)c3ncc(-c4cccc(C(=O)N(C)C)c4)n3c2)cc(OC)c1OC	-14	18	-1	4	.	.	.	.
CCC(C)NC(=O)Cn1nc(C(F)(F)F)c2c1CCCC2 (stereo unspecified)	-13	.	-1	-1	i	-5	-4	16
NC(=O)Cc1ccc(Nc2nnc(-c3ccc(O)cc3)c3ccccc23)cc1	.	17	4	4	i	-14	2	6
Cc1ccc(-n2ncc3c(NNC(=O)Cc4ccccc4)ncnc32)cc1	.	16	-1	-2	i	-8	0	-5
O=C1CC(c2cccs2)c2cc3c(cc2N1)OCO3 (stereo unspecified)	-14	-41	4	1	i	-10	6	-4
Cc1cccc(C)c1NC(=O)CCS(=O)(=O)c1cccc2nsnc12	-14	-52	-12	-5	i	8	1	0
Cc1ccc(CN2CCN(Cc3cccc(-n4cccn4)c3)CC2CCO)cc1 (stereo unspecified)	1	8	10	3	i	-6	11	2
COc1ccc(S(=O)(=O)N2CCCOC2CNC(=O)C(=O)NCCc2ccco2)cc1 (stereo unspecified)	8	0	-1	-2	i	0	4	13
O=C(COC(=O)CNC(=O)c1ccc(Cl)cc1)Nc1ccc(Cl)cc1C(F)(F)F	-13	-28	1	4	i	0	7	46
N/C(=N\OC(=O)C1CCCCC1)c1ccc(Br)cc1	2	-118	0	-2	i	-7	2	4
Carrying on.
SMILES	UUG fidelity	HIV Env fusion	MT1-MMP act inh	MT1-MMP act inh RFP	Rce1 inh	CSC inhib	eIF4H FP inh	PABP polyA inh
O=c1[nH]c(Nc2nc3ccccc3o2)nc2c1CCCC2	.	.	-13	-14	i	70	13	7
CCN(CC)S(=O)(=O)c1ccc(N2CCOCC2)c(NC(=O)c2cc3ccccc3o2)c1	-21	45	-4	-4	.	.	.	.
CSc1ccc(C2c3[nH]c4ccccc4c3CCN2C(=O)c2ccnn2C)cc1 (stereo unspecified)	.	-52	-1	-2	.	28	-2	-4
Cc1ccccc1Cn1nnc(-c2ccc3c(c2)OCO3)n1	-22	.	4	1	i	-3	0	-12
Cc1ccc2c(c1)C(O)(c1c(C)[nH]c3ccccc13)C(=O)N2 (stereo unspecified)	-12&1	-71	-9	0	i	13	3	8
O=C(CN1C(=O)CSC1=O)Nc1ccc(F)c(F)c1F	-13	-17	7	7	i	-11	1	-2
CCCC1C(=O)Nc2ccccc2N1C(=O)c1ccc(C(C)(C)C)cc1 (stereo unspecified)	-16	62*	-5	-13	i	1	-6	9
CCC[C@@H]1C[C@@]1(CCC)[C@@H](NP(=O)(c1ccccc1)c1ccccc1)c1ccc(C(=O)OC)cc1	.	96*	.	.	i	-11	-8	4
CC1CCCC(C)N1CCCNC(=O)C(=O)Nc1ccc2nc3n(c(=O)c2c1)CCCCC3 (stereo unspecified)	-19	1	0	2	i	-5	-8	8
CC(=O)c1cccc(NC(=S)NC(=O)Cc2ccccc2)c1	-13	10	-4	-1	.	0	3	1
O=C1N/C(=C/c2ccsc2)C(=O)N1c1ccccc1	-10	-79	0	-2	i	-4	-11	3
Nc1ccn(C2CCCO2)c(=O)n1 (stereo unspecified)	-16	13	-1	2	.	.	.	.
CCOc1ccc(N2C(=O)c3cccnc3C2Nc2ccc(Cl)cc2)cc1 (stereo unspecified)	-6	.	1	5	i	3	-5	-13
CN(Cc1ccccc1)C(=O)COC(=O)C1CCN(S(=O)(=O)c2ccc3c(c2)OCCO3)CC1	.	9	2	2	i	.	.	.
O=C(Nc1ccc(F)cc1)c1cccc(N2C(=O)c3ccccc3C2=O)c1	.	3	-2	-1	i	.	1	-8
Cc1nn2c(N3CCN(C)CC3)c3c(nc2c1-c1ccccc1)CCCC3	-12	9	-1	2	i	26	2	-10
CN(CCC#N)C(=O)COC(=O)C1c2ccccc2Oc2ccccc21	-6	8	1	3	i	-11	-10	9
Cc1ccc2cc(CCNC(=O)CCCc3ccccc3)c(=O)[nH]c2c1C	-2	31	1	3	i	19	-2	-6
NC(=O)[C@@H]1CCCNc2c(F)cc([N+](=O)[O-])cc2C(=O)N[C@@H](CO)C(=O)N[C@@H](Cc2ccc(O)cc2)C(=O)N1	-17	15	-3	4	i	-10	0	-3
CC(CN1CCCCC1)OC(=O)c1ccccc1F (stereo unspecified)	-9	2	-1	4	i	-7	-4	5
Cc1ccc2c(c1)COc1c3ccc(C(=O)N4CCOCC4)cc3nn1-2	28	-81	4	1	i	7	-2	5
COc1ccc(C(=O)N2CCC(C(=O)N3CCN(c4ccccc4)CC3)CC2)cc1	-11	0	-1	-2	i	-4	-13	9
CCOC(=O)N1CCN(S(=O)(=O)c2ccc3c(c2)NC(=O)CO3)CC1	-13	4	3	-2	.	.	.	.
CC1CCCCN1C(=O)C(Cc1ccccc1)N1C(=O)C2CCCCC2C1=O (stereo unspecified)	.	20	4	4	i	-3	-6	5
CCC(=O)N(Cc1ccco1)C1CC(=O)N(c2ccccc2)C1=O (stereo unspecified)	2	1	10	12	i	-33	2	-4

14 entries from above, set out differently.
Values in the order: UUG fidelity, HIV Env fusion, MT1-MMP act inh, MT1-MMP act inh RFP, Rce1 inh, CSC inhib, eIF4H FP inh, PABP polyA inh
O=C(NCC(=O)N(CC1CCCO1)C(C(=O)NC1CCCC1)c1ccc(F)cc1)c1ccco1 (stereo unspecified)
    -13, 2, 1, 7, i, -4, -5, -6
O=C(NCc1ccc2c(c1)OCO2)C1CCN(c2ncccn2)CC1
    -16, 15, 9, 2, i, 1, -9, 0
CN1CCN(CP(=O)(N2CCOCC2)N2CCOCC2)CC1
    -10, -66, 2, 5, ., -8, -3, -1
CN(C)c1ccc(CNc2ccc3c(c2)ncn3C(C)(C)C)cc1
    -6, 15, -1, -1, i, -1, -5, 2
Cc1ccccc1NC(=O)COC(=O)c1c[nH]c(=O)[nH]c1=O
    ., -11, 0, 6, i, -15, 0, -2
CCCCCSc1nc2c(c(=O)[nH]c(=O)n2C)n1CC
    -14, -27, 0, 2, i, -28, ., .
COCCCNC(=O)Cn1cnc2sc(C)c(S(=O)(=O)N3CCN(c4ncccn4)CC3)c2c1=O
    ., 8, -4, 0, i, 18, 1, -10
Cc1ccccc1NC(=S)N(Cc1cccs1)C1CCCCC1
    -28, 17, 0, 4, i, 8, -10, -5
COc1cc(OC)cc(-c2nnc(SCc3cccc(C(=O)O)c3)o2)c1
    ., 1, -2, 4, ., -10, -8, 14
CCN(c1cccc(C)c1)S(=O)(=O)c1ccc2c(c1)oc(=O)n2C
    -17, 13, -1, -3, i, 9, 0, -3
O=c1c(C(c2ccc(Cl)cc2)c2c(O)nc3n(c2=O)CCS3)c(O)nc2n1CCS2
    ., 3, 0, 7, i, -1, 6, 37
CCn1cc(C(=O)N2CCN(c3ccc([N+](=O)[O-])cc3)CC2)c(=O)c2ccc(C)nc21
    -19, -1, 6, -2, i, 10, 3, 2
CCS(=O)(=O)Nc1cccc(C(=O)CC2(O)C(=O)Nc3ccccc32)c1 (stereo unspecified)
    -6, -31, 1, 14, i, -5, 2, -8
CC(C)Oc1ccc(C(CC(=O)O)NC(=O)c2cccs2)cc1 (stereo unspecified)
    -2, -30, 5, 6, i, -11, -5, 9

(listing goes on)
SMILES	UUG fidelity	HIV Env fusion	MT1-MMP act inh	MT1-MMP act inh RFP	Rce1 inh	CSC inhib	eIF4H FP inh	PABP polyA inh
CCCCc1cc2c(cn1)=C(OC(=O)c1cnc3ccccc3n1)C(C)(OC(=O)CC)C(=O)C=2 (stereo unspecified)	.	2	.	.	.	.	1	12
COc1cc2ccccc2cc1C(=O)N1CCN(C)CC1	-5	.	0	-1	i	-7	-4	3
CCCOC1OC(=O)c2c1ccc(OC)c2OC (stereo unspecified)	-4	-14	0	5	i	-18	-2	-7
O=C(NCCc1c[nH]c2ccccc12)C(=O)NCC1OCCCN1S(=O)(=O)c1cc(F)ccc1F (stereo unspecified)	.	-15	-2	-6	.	5	-11	1
CSc1cc(-c2ccc(Cl)cc2)[nH]c(=O)c1C#N	.	-7	-1	-3	i	0	6	-13
COC(=O)c1ccccc1NC(=O)Cn1ccnc1	-22	3	0	4	i	-7	-5	12
CCOC(=O)N1CCN(C(=O)c2ccc3nc4ccsc4c(=O)n3c2)CC1	2	5	2	3	i	-12	-7	-3
O=C(Nc1cc2ccccc2oc1=O)C1CCCCC1	-2	-156	2	1	i	-3	-2	-1
c1ccc2cc(Cn3ccnc3)ccc2c1	-12	3	4	2	i	-20	-8	-7
C/C(=N/NS(=O)(=O)c1ccc(Cl)cc1)c1cccc(NC(=O)c2ccncc2)c1	2	-7	2	-1	i	7	-2	9
COCCCNCCOc1ccccc1-c1ccccc1	.	.	-3	0	i	-9	5	-5
Fc1ccccc1Nc1nc(NCc2ccco2)nc(N2CCOCC2)n1	.	28	-2	-6	i	-3	-6	-9

Screens deposited in PubChem by several laboratories.
